RGS16-Gao – modulators of RGS16 binding to Galphao, primary screen, biochemical, human proteins, multiplexed bead flow cytometry; 220,000 compounds, 0.38% hits; AID 1441, 2008; bead-based flow cytometry RGS16-Galphao binding, fluorescence; actives lie on both sides; binding response (% of control), % at 10 µM;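 active means below 25% or above 175%, edge rows of some plates excepted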;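 further: Galphao activated by GDP with aluminum fluoride before binding; 100% = wells without compound and 0% = beads without RGS; some results beyond the cut were filed as inactive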
Target sequence (O15492 whole entry, looked up): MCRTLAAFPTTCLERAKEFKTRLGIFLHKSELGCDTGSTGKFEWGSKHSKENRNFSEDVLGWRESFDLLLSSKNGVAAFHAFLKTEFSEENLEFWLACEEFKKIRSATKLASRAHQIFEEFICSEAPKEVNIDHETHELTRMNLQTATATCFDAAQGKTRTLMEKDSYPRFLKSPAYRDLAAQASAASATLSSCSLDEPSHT
Target sequence (P09471 whole entry, looked up): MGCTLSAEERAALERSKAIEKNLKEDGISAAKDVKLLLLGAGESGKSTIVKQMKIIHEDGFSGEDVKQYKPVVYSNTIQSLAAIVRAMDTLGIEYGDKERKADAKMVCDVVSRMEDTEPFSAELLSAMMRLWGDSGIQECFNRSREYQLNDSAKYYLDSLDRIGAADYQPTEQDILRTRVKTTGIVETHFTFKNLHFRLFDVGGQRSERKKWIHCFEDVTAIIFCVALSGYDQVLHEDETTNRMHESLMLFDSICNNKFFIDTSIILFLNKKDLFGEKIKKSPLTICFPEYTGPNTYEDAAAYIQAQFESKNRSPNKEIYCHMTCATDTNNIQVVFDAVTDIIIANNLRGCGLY
Insulin prom inh – inhibitors of insulin promoter-driven GFP, primary screen, imaging, TRM-6 cells (human fetal islet line), eGFP reporter, cell count; reporter expression induced with tamoxifen; 130,000 compounds, 0.9% hits; inhibition, % at 2 µM; AID 1273, 2008;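 active means inhibition above the mean plus 3 SD, with well images judged a real hit on visual review, cut at about 60% in these data, passing the limit was not always enough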
GALR2 ag – GALR2 receptor agonists, primary screen, cell-based | Galanin receptor type 2 (Homo sapiens), O43603 | GALR2-expressing cells, agonist activation read-out | activation, %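 (tested at 5 µM)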 | 140,000 compounds, 0.48% hits;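 active means above mean plus 3 SD of all compounds, about 5% in these data, not always enough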;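 further: 0% = vehicle buffer wells and 100% = reference agonist at full effect; tested in CHO reporter cells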
Target sequence (O43603 whole entry, looked up): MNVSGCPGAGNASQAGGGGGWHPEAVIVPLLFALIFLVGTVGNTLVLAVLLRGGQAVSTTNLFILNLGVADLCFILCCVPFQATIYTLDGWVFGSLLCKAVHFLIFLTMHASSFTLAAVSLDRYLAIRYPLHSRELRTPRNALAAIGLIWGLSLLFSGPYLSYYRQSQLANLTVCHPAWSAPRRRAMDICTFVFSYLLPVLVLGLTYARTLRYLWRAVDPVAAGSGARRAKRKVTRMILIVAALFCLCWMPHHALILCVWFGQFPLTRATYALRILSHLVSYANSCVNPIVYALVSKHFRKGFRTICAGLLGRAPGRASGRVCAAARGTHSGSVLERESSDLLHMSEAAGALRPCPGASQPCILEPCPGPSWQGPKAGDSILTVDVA
PKD1 kinase inh – inhibitors of human PKD1 kinase, biochemical, fluorescence polarization | Serine/threonine-protein kinase D1 (Homo sapiens), Q15139 | PKD1 kinase fluorescence polarization assay | inhibition, %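 (about 10 µM by stock and volumes)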 | 200,000 compounds, 0.056% hits | AID 797, 2007;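 active means inhibition of 50% or more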;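 further: controls were vehicle for no effect and a reference inhibitor for full effect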
HSV replic up – enhancers of HSV replication in host cells, fold increase, host cell viability; 220,000 compounds, 0.005% hits; HSV replication augmentation in cells; maximum fold increase;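 active means peak rise of 1.5-fold or more in the series; tested in PC3 cells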;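 further: first round at 10 µM; read as green reporter fluorescence; hits show the peak of a series up to 25 µM; 1 = signal of infected wells without compound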
Insulin prom inh cell count – further read-out of Insulin prom inh, marked with its call; normalized cell count, %; measured here: cell count, toxicity; reference of the scale not given here;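 cells exposed to compound for 48 h; stained nuclei by imaging scaled within each plate; lower means fewer cells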
HSV replic up primary fold – recorded beside HSV replic up, whose call it bears; fold increase; compound at 10 µM; measured here: primary screen fold increase 10 uM; tested in PC3 cells;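 GFP signal in the first replicate; 1 = infected wells without compound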
* = called active by the depositor; i = inactive; . = not tested or not shown.

Fields: HSV replic up, Insulin prom inh cell count, RGS16-Gao, Insulin prom inh, PKD1 kinase inh, HSV replic up primary fold, GALR2 ag
> NC(=O)[C@@H]1CCCN1Cc1nc(-c2ccc(C(F)(F)F)cc2)no1
    i, 35, 114, -43, -4, 0.95, .
> CCOC(=O)C1=C(C)N[C@@]2(O)c3ccccc3C(=O)[C@@]12O
    i, 148, -109, 23, -9, 1, 1.0
> Cc1sc2ncnc(Sc3nnnn3-c3ccc(Cl)cc3)c2c1C
    i, ., 95, ., 7, 0.76, -0.4
> C/C(=N\NC(=O)c1ccccc1C)c1ccc(N2CCOCC2)cc1
    i, 104, 98, -21, -9, 0.73, -2.7
> CCC(c1nnnn1C1CCCC1)N1CCN(C(=O)c2ccco2)CC1 (centres undefined)
    i, ., 108, ., 2, 0.89, -0.3
> CCc1ccc(/C=N/Nc2nn[nH]n2)cc1
    i, 102, 102, 62, 9, 0.89, -2.2
> NC(=O)C1CCC(NC(=O)OCc2ccccc2)CC1 (centres undefined)
    i, 104, 95, -3, 0, 1.1, -2.3
> N#C/C(=C\c1ccccc1C(F)(F)F)C(=O)Nc1ccccc1
    i, ., 100, ., -11, 1.1, -1.4
> Cn1c(=O)c2c(SCC(=O)Nc3nccs3)nc(C3CC3)nc2n(C)c1=O
    i, ., 101, ., ., 0.87, .
> Oc1nc(Nc2ccccc2)sc1/C=C1\C=Nc2ccccc21
    i, ., 100, ., ., 0.89, .

Compounds above that contain two or more sulfur atoms, in the order listed:
Fields: HSV replic up, Insulin prom inh cell count, RGS16-Gao, Insulin prom inh, PKD1 kinase inh, HSV replic up primary fold, GALR2 ag
> Cc1sc2ncnc(Sc3nnnn3-c3ccc(Cl)cc3)c2c1C
    i, ., 95, ., 7, 0.76, -0.4
> Cn1c(=O)c2c(SCC(=O)Nc3nccs3)nc(C3CC3)nc2n(C)c1=O
    i, ., 101, ., ., 0.87, .

Additional results.
Fields: HSV replic up, Insulin prom inh cell count, RGS16-Gao, Insulin prom inh, PKD1 kinase inh, HSV replic up primary fold, GALR2 ag
> O=C(COC(=O)c1ccc2c(c1[N+](=O)[O-])C(=O)c1ccccc1C2=O)NC1CC1
    i, 130, 97, -18, 5, 0.93, .
> O=C(OCC(=O)N1CCOCC1)C(c1ccccc1)c1ccccc1
    i, ., 102, ., -23, 0.9, -1.0
> CCCn1nc(C(=O)NCC(C)(C)N2CCOCC2)c2ccccc2c1=O
    i, 88, 98, -33, -1, 0.97, -0.3
> Cc1c(N=C/C=C2/N(C)c3ccccc3C2(C)C)c(=O)n(-c2ccccc2)n1C
    i, 74, 81, -30, -6, 0.68, -1.7
> O=C(c1c(Cl)nc2sccn12)N(C(=O)c1c(Cl)nc2sccn12)c1ccc(Cl)cn1
    i, 146, 102, 11, 3, 1.1, -3.8
> Cc1ccc2c([N+](=O)[O-])cccc2n1
    i, 115, 92, -25, 0, 0.99, -1.8
> COc1ccc(NC(=O)CC2C(=O)N(CCc3ccccc3)C(=S)N2Cc2cccnc2)cc1 (centres undefined)
    i, 114, 100, -33, -12, 1, 0.1
> OCCNc1nc(-c2ccccc2)nc2c1oc1ccccc12
    i, ., 87, ., ., 0.83, .
> COc1ccc(-n2ncc3c(N4CCc5ccccc54)ncnc32)cc1
    i, 152, 100, -53, -12, 1, -0.7
> Cc1ccccc1OCC1Cn2c(nc3c2c(=O)[nH]c(=O)n3C)O1 (centres undefined)
    i, 97, 103, 18, -11, 0.92, -2.2

Fields: HSV replic up, Insulin prom inh cell count, RGS16-Gao, Insulin prom inh, PKD1 kinase inh, HSV replic up primary fold, GALR2 ag
> Cc1c(NC(=O)c2cccnc2C(=O)O)cccc1C(=O)O
    i, 125, 103, 30, -2, 0.93, -1.2
> CC(=O)N(c1ccccc1)c1nc(/C=C/C(=O)Nc2c(C)cc(C)cc2C)cs1
    i, 83, 114, -10, -11, 0.87, 0.0
> COC(=O)c1sccc1NC(=O)C1CC1
    i, ., 95, ., ., 1.1, .
> Cc1nnc(N(Cc2ccco2)C(=O)c2ccno2)s1
    i, 104, 97, -3, -8, 0.95, -3.0
> COc1ccc(CC(=O)NCc2nc(-c3ccccc3)no2)cc1
    i, ., 103, ., -2, 0.9, .
> Cc1cccc(N=C(NO)c2nonc2N)c1
    i, 103, 101, -7, 4, 1, -3.3
> COc1ccc(C2c3ccc(O)cc3Oc3ncn4nc(-c5ccccn5)nc4c32)cc1OC (centres undefined)
    i, ., 102, ., ., 0.9, .
> O=C(COc1ccc(Cl)cc1[N+](=O)[O-])N/N=C/c1cccs1
    i, ., 100, ., -2, 1, .
> Cc1ccc(-n2c(=O)c3ccc(C(=O)NCc4ccco4)cc3n(Cc3ccccc3C#N)c2=O)cc1
    i, 58, 69, 39, 9, 0.7, -2.8
> CCN(CC)S(=O)(=O)c1ccc(C(=O)OCC(=O)c2ccc3c(c2)NC(=O)CO3)cc1
    i, 73, 103, 46, -2, 0.94, -2.4

Fields: HSV replic up, Insulin prom inh cell count, RGS16-Gao, Insulin prom inh, PKD1 kinase inh, HSV replic up primary fold, GALR2 ag
> Clc1ccc(-c2nnc3ccccn23)cc1
    i, 114, 99, -55, 13, 0.83, -1.4
> CCCCC(C(=O)O)C(C)CC(=O)Nc1nccs1 (centres undefined)
    i, ., 97, ., ., 1.1, .
> COc1ccc(NC(=S)N2CCCCCC2)cc1OC
    i, ., 112, ., -2, 0.96, .
> Cn1c(=O)c2c(nc(NCc3cccnc3)n2Cc2ccccc2Cl)n(C)c1=O
    i, ., 101, ., 1, 1, .
> CCOC(=O)/C=c1\s/c(=C\c2ccc3cc(OC)ccc3c2)c(=O)n1CC(=O)NCC1CCCO1 (centres undefined)
    i, ., 105, ., 6, 0.99, -1.3
> COc1ccccc1-c1nn(Cc2ccccc2)cc1/C=C/C(=O)O
    i, ., 110, ., ., 1.1, .
> O=C(CCCN1C(=O)/C(=C\c2cccs2)SC1=S)Nc1cccnc1
    i, 130, 103, 8, -1, 0.9, -1.3
> COC(=O)CSC1=C(C#N)C(c2ccc(C)o2)CC(=O)N1 (centres undefined)
    i, ., 127, ., -1, 0.83, .
> CCOC(=O)N1CCC(=NNS(=O)(=O)c2cccc([N+](=O)[O-])c2)CC1
    i, 108, 99, -27, -4, 0.98, -0.5
> CC(C)(CO)NCc1cccs1
    i, ., 103, ., -3, 1, .

Fields: HSV replic up, Insulin prom inh cell count, RGS16-Gao, Insulin prom inh, PKD1 kinase inh, HSV replic up primary fold, GALR2 ag
> Cc1cc(C)nc(S/C=C/C(=O)c2ccc(F)cc2)n1
    i, ., 96, ., ., 0.74, .
> Nc1cc(OC(=O)c2ccccc2Br)nn1S(=O)(=O)c1ccccc1
    ., ., 104, ., -4, ., -0.8
> CC(C)CCNC(=O)CC1C(=O)N(Cc2ccccc2)C(C)c2nc3ccccc3n21 (centres undefined)
    i, 118, 103, -127, -6, 1.1, 0.6
> CC(C)NCC#CCOc1ccc(Cl)cc1
    i, ., 92, ., 0, 0.91, .
> CC(C)(C)NS(=O)(=O)c1ccc(/C=C/C(=O)O)cc1
    i, ., 96, ., -3, 1.2, .
> CN1C(=O)CC(Nc2cccc3cccc(N)c23)C1=O (centres undefined)
    i, 101, 96, -27, 11, 0.97, .
> CCOc1cc(C=O)cc(Br)c1OCC(N)=O
    i, ., 98, ., -5, 1, .
> O=C(c1nc(SCc2ccc([N+](=O)[O-])cc2)n2ccccc12)C(F)(F)F
    i, ., 99, ., ., 1, .
> O=C(O)c1ccccc1-c1cn2cc(Cl)ccc2n1
    i, 77, 99, -7, -6, 1, .
> CCn1cc([N+](=O)[O-])c(C(=O)Nc2ccn(Cc3ccccc3)n2)n1
    i, 100, 112, -16, -12, 0.85, -0.7

Fields: HSV replic up, Insulin prom inh cell count, RGS16-Gao, Insulin prom inh, PKD1 kinase inh, HSV replic up primary fold, GALR2 ag
> Clc1cccc(-c2nc(-c3ccccn3)no2)c1
    i, 187, 90, 0, 16, 0.99, -2.2
> CCN=c1sc(C(=O)OC)cc(=O)n1CC
    i, 159, 98, -21, -6, 0.93, -2.1
> COc1cc(C2C(C#N)=C(N)Oc3n[nH]c(-c4cccs4)c32)cc(OC)c1O (centres undefined)
    ., ., 93, ., -4, ., .
> O=C(CCc1ccc(S(=O)(=O)N2CCOCC2)cc1)Nc1cc(Cl)ccc1N1CCOCC1
    i, 54, 108, -7, -5, 0.9, -1.0
> C1COCCNCCOCCOCCOCCN1
    i, ., 105, ., 8, 0.99, -2.1
> Cc1ccc2nc(-c3ccccc3)nc(SC(C)C(=O)NCc3cccs3)c2c1 (centres undefined)
    ., 45, 103, 7, -1, ., -2.5
> Cn1c2c(c(=O)n(C)c1=O)CN(CCN1CCNCC1)CN2
    i, 100, 97, -8, 26, 0.89, -3.6
> COc1ccc(Nc2nc(-c3c(C)nc4ncccn34)cs2)cc1
    i, 6, 187, -138, 4, 0.61, .
> CCOC(=O)C(NC(=O)Nc1ccc(C(N)=O)cc1)(c1ccccc1)C(F)(F)F (centres undefined)
    i, 167, 89, -13, -7, 0.95, -0.5
> CN(CCc1cnn(C)c1)C(=O)CCc1nnc(CCCc2ccccc2)o1
    i, 118, 104, -29, -10, 1.1, .

Overlap with the part before: 3 entries; new compounds follow.
Fields: HSV replic up, Insulin prom inh cell count, RGS16-Gao, Insulin prom inh, PKD1 kinase inh, HSV replic up primary fold, GALR2 ag
> COc1ccc(Nc2nc(-c3c(C)nc4ncccn34)cs2)cc1
    i, 6, 187, -138, 4, 0.61, .
> CCOC(=O)C(NC(=O)Nc1ccc(C(N)=O)cc1)(c1ccccc1)C(F)(F)F (centres undefined)
    i, 167, 89, -13, -7, 0.95, -0.5
> CN(CCc1cnn(C)c1)C(=O)CCc1nnc(CCCc2ccccc2)o1
    i, 118, 104, -29, -10, 1.1, .
> O=C(c1cn(-c2ccccc2)nc1-c1ccc(F)cc1)N1CCOCC1
    i, ., 106, ., -4, 0.86, -2.4
> O=C(Nc1nc2c(s1)CCCC2)c1cc(-c2ccccc2)nc2ccccc12
    i, 69, 100, 36, -12, 0.82, -0.6
> O=C(OCCN(CCOC(=O)c1ccncc1)S(=O)(=O)c1cccs1)c1ccncc1
    i, 126, 108, -20, -2, 0.84, -2.6
> Cc1cccc(OCCCC(=O)Nc2nc3ccccc3[nH]2)c1
    i, 141, 103, -27, 1, 0.75, .
> Cc1nn(-c2ccc(Cl)cc2Cl)c(=O)c2ccccc12
    i, 144, 107, -36, -8, 0.99, -0.2
> O=C(Nc1ccc2snnc2c1)Nc1cccc2ccccc12
    i, 76, 104, -7, 1, 0.88, -0.1
> C=CCNc1nc(NCC)nc(N2CCOCC2)n1
    i, 97, 101, 60, -4, 0.83, -0.7
> COc1ccc(S(=O)(=O)N2CCCCCC2)cc1NC(=O)Cc1ccccc1
    i, 231, 102, -21, -1, 0.89, .
> CNC(=S)Nc1cc(C(=O)N2CCCC2)ccc1N1CCCC1
    i, 113, 99, 0, 4, 0.99, .
> O=C(Nc1nc2c(s1)CCCC2)c1cc2n(n1)C(C(F)(F)F)CC(C1CC1)N2 (centres undefined)
    i, ., 99, ., -1, 0.85, -0.9

Fields: HSV replic up, Insulin prom inh cell count, RGS16-Gao, Insulin prom inh, PKD1 kinase inh, HSV replic up primary fold, GALR2 ag
> Cc1ccc(CNC(=O)CNC(=O)c2c(C)nn(C)c2Cl)cc1
    i, ., 100, ., 0, 0.98, .
> CN(C)c1ccc(N/C=C/C(=O)C(F)(F)F)cc1
    i, 141, 107, -64, -3, 0.96, .
> CCN(CC)C(=O)CSc1nc2cc3c(cc2c(=O)n1Cc1ccc2c(c1)OCO2)OCO3
    i, 80, 90, 33, -3, 0.77, 1.3
> CCOc1ccc(S(=O)(=O)NCc2cccs2)cc1
    i, 159, 100, 13, -7, 0.92, -1.3
> Cc1c(C2OC(=O)C3(CCCCC3)C(=O)C2(C)C)c(=O)n(-c2ccccc2)n1C (centres undefined)
    i, ., 104, ., -6, 0.81, -1.7
> C=CCOC(=O)Nc1ccc(Cl)cc1NC(=O)OCC=C
    i, ., 102, ., -6, 0.76, -2.5
> O=C(NCc1ccco1)c1cccn2c(=O)c3cc4ccccc4cc3nc12
    ., 73, 91, -25, 3, ., 0.8
> O=C(COC(=O)Cn1cnc2ccccc21)NCc1ccc(F)cc1
    i, ., 103, ., -6, 1, .
> COc1ccc(N2C(=O)CC(N(CCc3ccc(OC)c(OC)c3)C(=S)Nc3ccccc3)C2=O)cc1 (centres undefined)
    i, ., 101, ., 0, 0.65, -0.6
> O=C(O)c1ccc(N/N=C/C2=C(N3CCOCC3)C(=C\c3ccccc3)/CC2)cc1
    i, ., 99, ., ., 1.1, .

High-throughput results: PubChem BioAssay, several laboratories
